Assay outcomes deposited in PubChem by Broad Institute.
rRNA inh HTS – selective bacterial rRNA inhibition in E. coli | E. coli WT GFP vs humanized-ribosome RFP mutants, fluorescence, 24 h; hits give low values; DMSO median 0, no signal -100 | GFP signal change (wild-type ribosome), % (concentration not given with the values) | 350,000 tested, 1.6% active;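 active means significant combined selectivity score with lowered wild-type GFP, culture density cut under 30%, mutant RFP and density less affected; inactive means any of these conditions unmet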; further: one replicate is shown; some compounds called inactive have numbers as strong as hits
rRNA inh HTS OD600 – recorded beside rRNA inh HTS, whose call it bears; OD600 change, %; measured here: OD600 growth;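 optical density of the mix in the first replicate; 0 = DMSO median and -100 = no signal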
rRNA inh HTS RFP – further read-out of rRNA inh HTS, marked with its call; RFP signal change, %; measured here: RFP humanized mutant strains;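 first replicate; 0 = DMSO median and -100 = no signal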
* = called active by the depositor; & = joins results of further samples.

Screens in order: rRNA inh HTS | rRNA inh HTS OD600 | rRNA inh HTS RFP
- COc1ccc2c3c(n(C)c2c1)[C@@H](CO)N(C(=O)NC1CCCC1)CC31CCN(C)CC1
  4 | 5 | -1.2
- CNC[C@H]1OCc2ccccc2-c2c(n(C)c3ccccc23)C(=O)N([C@H](C)CO)C[C@@H]1C
  -4 | -7 | 5.8
- CC(=O)N(C)C[C@@H]1Oc2ncc(-c3ccccc3C)cc2C(=O)N([C@@H](C)CO)C[C@H]1C
  1 | 7 | -3.7
- O=C(N[C@H]1CC[C@H](CCn2cc(Cc3ccccc3)nn2)O[C@H]1CO)c1cnccn1
  1 | 5 | -0.5
- C/C=C/c1ccc([C@H]2[C@@H](CO)N3CCCCN(S(=O)(=O)c4cccs4)C[C@H]23)cc1
  -55 | -74 | -8.3
- CCCC(=O)N1CCCC1(C)C(=O)N(C)Cc1cccc2ccccc12 (stereo unspecified)
  0 | -6 | -4.5
- COc1ccc(C#Cc2cnc3c(c2)C(=O)N([C@@H](C)CO)C[C@H](C)[C@@H](CN(C)C(=O)Nc2cccc(OC)c2)O3)cc1
  -7 | 3 | 1.1
- CC(C)[C@@H]1C(=O)NCCC=CC[C@@H](C)Oc2ccccc2C(=O)N1C (mixture of isomers)
  -1 | 1 | 1.7
- CCCCC1Cc2[nH]c(=S)[nH]c(=O)c2C(c2ccc(F)cc2)O1 (stereo unspecified)
  -1 | 3 | -0.1
- CO[C@H]1CN(C)C(=O)c2ccc(NS(=O)(=O)c3cccc(C)c3)cc2OC[C@@H](C)NC[C@@H]1C
  4 | 6 | -1.8
- C[C@@H]1CN([C@@H](C)CO)S(=O)(=O)c2ccc(C#CC(C)(C)O)cc2O[C@@H]1CN(C)C(=O)CC1CC1
  -1 | -6 | -1.3
- CO[C@@H]1CN(C)C(=O)c2ccc(NC(=O)c3cc(C)on3)cc2OC[C@H](C)N(C(C)=O)C[C@@H]1C
  1 | 5 | -0.4
- CCCN(C)C[C@@H]1OCCCC[C@H](C)Oc2ccc(NC(=O)Nc3ccc(F)cc3)cc2C(=O)N([C@H](C)CO)C[C@@H]1C
  -8 | -42 | 23
- COCC(=O)N1CC(=O)N2[C@@H](CO)[C@@H](c3ccc(C#CCc4ccccc4)cc3)[C@@H]2C1
  -2 | 1 | -3.9
- O=C(Nc1ccc2nc([C@@H]3O[C@H](CO)[C@@H](O)[C@H](O)[C@H]3O)[nH]c2c1)NC(c1ccccc1)c1ccccc1
  5 | 2 | -4.2
- Cc1noc(C)c1S(=O)(=O)Nc1ccc2c(c1)C(=O)N([C@@H](C)CO)C[C@@H](C)[C@@H](CN(C)S(=O)(=O)c1ccccc1)OCCCC[C@@H](C)O2
  2 | -5 | 2.9
- COc1ccc(NC(=O)Nc2ccc3c(c2)CC(=O)N([C@H](C)CO)C[C@@H](C)[C@H](CN(C)Cc2ccc4c(c2)OCO4)O3)cc1
  -4 | -10 | 9.1
- Cc1ccc(S(=O)(=O)N(C)C[C@@H]2Oc3ccc(NS(=O)(=O)c4c(C)noc4C)cc3C(=O)N([C@@H](C)CO)C[C@H]2C)cc1
  0 | -2 | 0.8
- CCS(=O)(=O)NCC[C@H]1CC[C@H](NS(=O)(=O)c2cccc(Cl)c2)[C@H](CO)O1
  0 | 1 | 0.0
- Cc1noc(C)c1NC(=O)Nc1ccc2c(c1)C(=O)N([C@@H](C)CO)C[C@@H](C)[C@H](CN(C)C(=O)Nc1ccccc1)OCCCC[C@@H](C)O2
  -3 | 5 | 1.2
- CCCNC(=O)C1(C)CCN(Cc2noc(-c3ccccc3OC)n2)C1 (stereo unspecified)
  3 | 1 | -0.3
- COc1ccc(CN(C)C[C@@H]2OCCCC[C@H](C)Oc3ccc(NC(=O)c4ccncc4)cc3C(=O)N([C@H](C)CO)C[C@H]2C)cc1
  3 | 5 | 1.3
- C[C@@H]1CCCCO[C@@H](CN(C)C(=O)C2CCCCC2)[C@@H](C)CN([C@@H](C)CO)C(=O)c2cc(NC(=O)Nc3ccccc3)ccc2O1
  1 | -2 | -2.0
- CNC(=O)C[C@@H]1CC[C@H]2[C@@H](COc3ccc(NC(=O)Nc4ccccc4)cc3C(=O)N2C)O1
  4 | 5 | 0.2
- CCc1csc(N2[C@H](CO)[C@@H](c3ccc(-c4cccc(F)c4)cc3)[C@@H]2C#N)n1
  -5 | -42 | 29
- CCC(=O)Nc1ccc2c(c1)OC[C@H](C)N(Cc1ccccc1)C[C@@H](C)[C@H](OC)CN(C)C2=O
  -9 | -11 | 2.4
- O=C(C[C@@H]1C[C@H]2c3cc(NC(=O)Nc4ccc(F)cc4)ccc3O[C@H]2[C@@H](CO)O1)NC1CCCCC1
  -1 | 1 | 2.8
- CO[C@@H]1CN(C)C(=O)c2cc(NC(=O)Cc3ccccc3)ccc2OC[C@H](C)N(C(C)=O)C[C@@H]1C
  0 | 2 | -0.9
- COCC(=O)N(C)C[C@@H]1Oc2cc(C#Cc3ccccc3)ccc2S(=O)(=O)N([C@H](C)CO)C[C@H]1C
  -2 | 4 | -2.9
- CC(=O)NC(C)(c1ccccc1)c1nc(-c2ccc(N(C)C)cc2)cs1 (stereo unspecified)
  1 | 6 | 2.3

7 of the entries above in order of the rRNA inh HTS OD600 value, rising:
Screens in order: rRNA inh HTS | rRNA inh HTS OD600 | rRNA inh HTS RFP
- CCc1csc(N2[C@H](CO)[C@@H](c3ccc(-c4cccc(F)c4)cc3)[C@@H]2C#N)n1
  -5 | -42 | 29
- CCC(=O)Nc1ccc2c(c1)OC[C@H](C)N(Cc1ccccc1)C[C@@H](C)[C@H](OC)CN(C)C2=O
  -9 | -11 | 2.4
- C[C@@H]1CCCCO[C@@H](CN(C)C(=O)C2CCCCC2)[C@@H](C)CN([C@@H](C)CO)C(=O)c2cc(NC(=O)Nc3ccccc3)ccc2O1
  1 | -2 | -2.0
- CCCNC(=O)C1(C)CCN(Cc2noc(-c3ccccc3OC)n2)C1 (stereo unspecified)
  3 | 1 | -0.3
- COCC(=O)N(C)C[C@@H]1Oc2cc(C#Cc3ccccc3)ccc2S(=O)(=O)N([C@H](C)CO)C[C@H]1C
  -2 | 4 | -2.9
- CNC(=O)C[C@@H]1CC[C@H]2[C@@H](COc3ccc(NC(=O)Nc4ccccc4)cc3C(=O)N2C)O1
  4 | 5 | 0.2
- CC(=O)NC(C)(c1ccccc1)c1nc(-c2ccc(N(C)C)cc2)cs1 (stereo unspecified)
  1 | 6 | 2.3

Next section
Screens in order: rRNA inh HTS | rRNA inh HTS OD600 | rRNA inh HTS RFP
- CO[C@H]1CN(C)C(=O)c2ccc(NC(C)=O)cc2OC[C@@H](C)N(Cc2ccccc2C(=O)O)C[C@@H]1C
  1 | 4 | -0.9
- CC(C)(C)S(=O)(=O)N1C[C@@H]2CC(=O)C(CCO)=C2[C@H]1CCO
  1 | -3 | 15
- O=C(C[C@@H]1C=C[C@H](NC(=O)Cc2ccccn2)[C@H](CO)O1)NCCCN1CCOCC1
  -1 | 6 | -0.6
- O=C(c1cnccn1)N1CC(=O)N2[C@H](C1)[C@H](c1ccc(C#CC3CC3)cc1)[C@@H]2CO
  8 | 8 | -0.3
- CNC[C@@H]1OCCCC[C@H](C)Oc2ccc(NC(=O)Nc3ccc(OC)cc3)cc2C(=O)N([C@@H](C)CO)C[C@@H]1C
  1 | 7 | 0.4
- N#C[C@@H]1[C@H](c2ccccc2)[C@@H](CO)N1C(=O)Cc1ccccn1
  -2 | 5 | -2.6
- C[C@H](CO)N1C[C@H](C)[C@@H](CN(C)C(=O)Nc2cccc3ccccc23)OCCCC[C@H](C)Oc2ccc(NS(=O)(=O)c3ccc(F)cc3)cc2C1=O
  3 | -2 | -2.0
- C[C@@H]1CN([C@@H](C)CO)C(=O)c2cccc(NC(=O)Nc3ccc(C(F)(F)F)cc3)c2O[C@@H]1CN(C)C(=O)Nc1cccc2ccccc12
  -1 | -4 | -1.9
- CO[C@@H]1CN(C)C(=O)c2ccc(NS(=O)(=O)c3cn(C)cn3)cc2OC[C@@H](C)N(CCC(F)(F)F)C[C@H]1C
  1 | 2 | 2.2
- CC(=O)Nc1ccc(NC(=O)c2ccc(-c3c(C)noc3C)c3ccoc23)cc1
  4 | 10 | 3.9
- CS(=O)(=O)Nc1ccc2c(c1)[C@H]1C[C@@H](CC(=O)NC3CCCC3)O[C@@H](CO)[C@H]1O2
  5 | 5 | -1.4
- C[C@H](CO)N1C[C@H](C)[C@H](CN(C)C(=O)Nc2ccc(F)cc2)Oc2ccc(NC(=O)C3CCCCC3)cc2C1=O
  -1 | 3 | 0.9
- COc1ccc(NC(=O)Nc2ccc3c(c2)C(=O)N([C@@H](C)CO)C[C@H](C)[C@@H](CN(C)C(=O)NC2CCCCC2)OCCCC[C@H](C)O3)cc1
  -1 | 8 | -3.5
- C[C@@H]1CCCCO[C@H](CN(C)S(C)(=O)=O)[C@@H](C)CN([C@H](C)CO)C(=O)c2cc(NC(=O)Nc3ccc4c(c3)OCO4)ccc2O1
  1 | 1 | -0.9
- CC1(C(=O)NC2CCCCCC2)CCN1C(=O)Cc1ccc(-c2ccccc2)cc1 (stereo unspecified)
  -59 | -70 | -16
- Cc1ccc(-c2ccc([C@H]3[C@@H](CO)N4C(=O)CN(S(=O)(=O)c5cccc(F)c5)C[C@@H]34)cc2)cc1
  -1 | 0 | -1.3
- CN(C)CC(=O)N[C@@H]1CC[C@@H](CCNC(=O)Nc2ccc(Cl)cc2)O[C@H]1CO
  -28* | -20* | 7.8*
- Cc1noc(C)c1NC(=O)N(C)C[C@@H]1Oc2ccc(NS(=O)(=O)c3cn(C)cn3)cc2C(=O)N([C@H](C)CO)C[C@H]1C
  4 | 3 | -1.8
- CC(C)N1CCC1(C)C(=O)Nc1nccc2cccnc12 (stereo unspecified)
  5 | 4 | -1.6
- COc1ccc(S(=O)(=O)Nc2ccc3c(c2)C(=O)N([C@@H](C)CO)C[C@H](C)[C@@H](CN(C)C(=O)Nc2ccccc2)O3)cc1
  6 | 7 | -0.2
- Cc1noc(C)c1NC(=O)N(C)C[C@H]1Oc2ccc(NC(=O)C3CCCCC3)cc2C(=O)N([C@H](C)CO)C[C@H]1C
  2 | 0 | 0.0
- NC(Cc1ccc(Cl)cc1)c1csc(NC(=O)NCCc2ccccc2)n1 (stereo unspecified)
  -60 | -80 | -20
- Cc1ccccc1S(=O)(=O)N1[C@@H]2CNC[C@H]1C2c1ccc(-c2cccnc2)cc1 (stereo partly specified)
  -7&-8 | 6&8 | 2.1&-0.5
- COc1ccc(CN(C)C[C@H]2Oc3ccc(NC(=O)C4CCCCC4)cc3C(=O)N([C@H](C)CO)C[C@@H]2C)cc1
  1 | 14 | 2.4
- CC(C)CC#Cc1ccc([C@H]2[C@H](CO)N3C(=O)CN(C(=O)Nc4cc(F)ccc4F)C[C@@H]23)cc1
  -8 | -37 | 2.4
- COC(=O)C1(C(=O)OC)C2CCCCC2N(S(=O)(=O)c2ccc(C)cc2)[C@@H]1CC(C)=O (stereo partly specified)
  1 | 4 | 3.4
- CCCCN1C(=O)C(CC(=O)NCC2CCCCC2)CC(C(=O)N(CC)CC)=C1C (stereo unspecified)
  -3 | 5 | -1.4
- CNC[C@@H]1Oc2ccc(NC(=O)Nc3ccccc3)cc2CC(=O)N([C@H](C)CO)C[C@H]1C
  0 | 4 | -1.8
- COc1ccc(S(=O)(=O)N(C)C[C@@H]2Oc3ccc(NC(=O)CCC(F)(F)F)cc3CC(=O)N([C@@H](C)CO)C[C@@H]2C)cc1
  -1 | -6 | 0.6
- CCCNC(=O)N1[C@@H](CO)[C@H](c2ccccc2)C12CN(C(=O)C1CCCCC1)C2
  2 | 0 | -1.8
- COc1ccc(S(=O)(=O)Nc2ccc3c(c2)C(=O)N([C@@H](C)CO)C[C@@H](C)[C@@H](CN(C)C(=O)c2ccncc2)OCCCC[C@H](C)O3)cc1
  2 | 3 | -4.8
- COc1ccc(-c2ccc3c(c2)[C@H]2[C@H](CCN2C(=O)Cc2cccnc2)[C@@H](CO)N3C)cc1
  -1 | -10 | -1.5
- C[C@H](CO)N1C[C@H](C)[C@H](CN(C)Cc2ccc3c(c2)OCO3)Oc2ccc(NC(=O)Nc3ccccc3)cc2C1=O
  4 | 4 | 3.2
- CCCC#Cc1ccc([C@H]2[C@@H](CO)N(C(=O)C3CCOCC3)[C@H]2C#N)cc1
  2 | -5 | -1.6
- C[C@@H]1CCCCO[C@H](CN(C)C(=O)Nc2ccc(C(F)(F)F)cc2)[C@H](C)CN([C@H](C)CO)C(=O)c2cc(NC(=O)c3ccccc3)ccc2O1
  3 | 15 | -2.8
- Cc1ccc(S(=O)(=O)N(C)C[C@H]2Oc3ccc(NC(=O)Nc4c(C)noc4C)cc3C(=O)N([C@H](C)CO)C[C@@H]2C)cc1
  1 | 0 | -0.7
- C[C@@H]1CN([C@H](C)CO)C(=O)c2cc(-c3ccc(F)cc3)cnc2O[C@@H]1CN(C)Cc1ccc(C(=O)O)cc1
  -5 | 2 | -8.5
- C[C@H](CO)N1C[C@H](C)[C@H](CN(C)C(=O)c2ccncc2)OCCCC[C@H](C)Oc2ccc(NS(=O)(=O)c3cn(C)cn3)cc2C1=O
  1 | 8 | 1.8
- O=C(C[C@H]1CC[C@H](NC(=O)c2ccc3c(c2)OCO3)[C@@H](CO)O1)NCc1ccc(Oc2ccccc2)cc1
  -2 | -16 | 0.7
- COCC#Cc1ccc2c(c1)O[C@@H](CN(C)C(=O)C1CCC1)[C@H](C)CN([C@@H](C)CO)S2(=O)=O
  0 | 3 | -1.5

These rows are one share of the data (hit frequency here may not be typical).
